rRNA inh HTS – selective bacterial rRNA inhibition in E. coli; E. coli WT GFP vs humanized-ribosome RFP mutants, fluorescence, 24 h; active compounds read low; DMSO median 0, no signal -100; GFP signal change (wild-type ribosome), % (no concentration beside the values); 350,000 tested, 1.6% active;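 active = significant combined selectivity score with lowered wild-type GFP, culture density cut under 30%, mutant RFP and density less affected; inactive = any of these conditions unmet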; note: one replicate is shown; some compounds called inactive have numbers as strong as hits
MLL AF4-AF9 inh – blocks AF4 peptide binding to human AF9; 350,000 tested, 0.47% active; inhibition, % at 10 µM; AlphaScreen, biotin-AF4 peptide binding to FLAG-AF9;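 active = every replicate reaching a set inhibition limit, whatever the replicate mean, cut at about 25% in these data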;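 note: 0% = plate neutral control median and 100% = total signal loss; the record names both 10 and 1 µM as test concentration; the first replicate is given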
Target sequence (P42568 whole entry, looked up): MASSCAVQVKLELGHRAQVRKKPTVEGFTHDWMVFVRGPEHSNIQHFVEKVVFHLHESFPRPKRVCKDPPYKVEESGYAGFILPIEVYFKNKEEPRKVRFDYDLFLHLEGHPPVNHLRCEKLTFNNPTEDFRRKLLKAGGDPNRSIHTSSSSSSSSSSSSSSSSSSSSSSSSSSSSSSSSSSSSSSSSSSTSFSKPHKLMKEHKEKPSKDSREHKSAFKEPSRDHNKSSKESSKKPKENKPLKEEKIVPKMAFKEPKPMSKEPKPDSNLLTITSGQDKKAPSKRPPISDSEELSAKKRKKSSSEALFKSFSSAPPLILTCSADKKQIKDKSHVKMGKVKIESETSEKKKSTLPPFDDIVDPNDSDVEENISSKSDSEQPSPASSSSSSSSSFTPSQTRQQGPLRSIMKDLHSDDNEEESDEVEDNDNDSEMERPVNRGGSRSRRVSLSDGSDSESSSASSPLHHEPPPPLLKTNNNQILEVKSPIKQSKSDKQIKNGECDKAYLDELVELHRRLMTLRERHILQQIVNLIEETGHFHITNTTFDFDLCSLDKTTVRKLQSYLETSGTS
rRNA inh HTS OD600 – further read-out of rRNA inh HTS, marked with its call; OD600 change, %; measured here: OD600 growth;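 optical density of the mix in the first replicate; 0 = DMSO median and -100 = no signal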
rRNA inh HTS RFP – also measured in rRNA inh HTS; calls as there; RFP signal change, %; measured here: RFP humanized mutant strains;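 first replicate; 0 = DMSO median and -100 = no signal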
The depositor's hits bear a star; & = joins results of further samples. The list is partial (hit frequency here may not be typical).

rRNA inh HTS | rRNA inh HTS OD600 | rRNA inh HTS RFP | MLL AF4-AF9 inh | SMILES
-3 | 4 | 0.6 | 1.1 | CO[C@@H]1CN(C)C(=O)c2ccc(NC(=O)Nc3ccccc3Cl)cc2OC[C@H](C)NC[C@@H]1C
-2 | -1 | 1.0 | -2.6 | O=C(c1ccncc1)N1CC(=O)N2[C@H](CO)[C@H](c3ccc(-c4ccccc4F)cc3)[C@H]2C1
0 | -2 | -2.0 | 0.5 | CO[C@H]1CN(C)C(=O)c2ccc(NC(=O)C3CCOCC3)cc2OC[C@@H](C)N(Cc2cccnc2)C[C@@H]1C
1 | 5 | 0.8 | 0.3 | CCNC(=O)[C@@H]1[C@@H](CO)[C@@H]2Cn3c(cccc3=O)[C@@H]2N1Cc1cccc(F)c1
2 | 8 | -1.4 | -3.2 | Cc1noc(C)c1S(=O)(=O)Nc1ccc2c(c1)CC(=O)N([C@H](C)CO)C[C@H](C)[C@H](CN(C)Cc1ccncc1)O2
-6&6 | -14&3 | 9.4&1.7 | 8.6&2.2 | COc1ccc(NC(=O)N2[C@@H]3CNC[C@H]2C3c2ccc(-c3cccc(OC)c3)cc2)cc1 (some centres not stated)
8 | 8 | 0.8 | -3.6 | C[C@H]1CN([C@@H](C)CO)C(=O)c2cc(-c3cccnc3)cnc2O[C@@H]1CN(C)C(=O)Nc1ccc2c(c1)OCO2
1 | 12 | 0.0 | -2.5 | CCCNC(=O)N1CC2(C1)[C@@H](c1ccccc1)[C@@H](CO)N2C(=O)C1CCCC1
-18 | -63 | 8.0 | 0.1 | O=C(c1ccccc1)N1CC(=O)N2[C@H](CO)[C@H](c3ccc(C#Cc4ccccc4)cc3)[C@@H]2C1
-1 | 0 | -2.2 | -2.0 | O=C(NCC1CC1)[C@H]1[C@H](CO)[C@H]2Cn3c(ccc(-c4ccccc4)c3=O)[C@@H]1N2Cc1nccs1
3 | 6 | -1.7 | 0.1 | O=C1CNC[C@H]2[C@@H](c3ccc(C4=CCCCC4)cc3)[C@H](CO)N12
0 | 3 | 0.7 | -2.0 | C[C@H]1CCCCO[C@@H](CN(C)CC2CCCCC2)[C@@H](C)CN([C@@H](C)CO)C(=O)c2cc(NC(=O)Cc3ccccc3)ccc2O1
0 | 0 | 0.9 | -3.8 | C[C@@H]1CN([C@@H](C)CO)C(=O)Cc2cc(NS(=O)(=O)c3cn(C)cn3)ccc2O[C@H]1CN(C)Cc1ccncc1
-1 | -9 | 1.3 | 0.4 | CN1C(=O)c2cc(NC(=O)Nc3cccc(Cl)c3)ccc2OC[C@H]2O[C@H](CC(=O)O)CC[C@H]21
18 | 13 | -0.7 | 0.8 | O=C(NCc1ccncc1)[C@@H]1CCCN1C(=O)[C@H]1CCCN1C(=O)c1cccc(Cl)c1
3 | -16 | 12 | 7.2 | C[C@H](CO)N1C[C@H](C)[C@@H](CN(C)Cc2ccccc2)Oc2ncc(C3=CCCCC3)cc2C1=O
1 | 6 | 0.8 | -5.8 | COc1ccc(NC(=O)N(C)C[C@@H]2Oc3ccc(NS(=O)(=O)c4ccc(Cl)cc4)cc3C(=O)N([C@@H](C)CO)C[C@@H]2C)cc1
3 | 0 | 1.7 | -1.5 | COc1ccccc1C#Cc1ccc2c(c1)O[C@@H](CN(C)Cc1ccccc1)[C@H](C)CN([C@H](C)CO)S2(=O)=O
1 | 3 | -1.5 | -0.4 | Cc1noc(C)c1S(=O)(=O)Nc1ccc2c(c1)C(=O)N([C@H](C)CO)C[C@@H](C)[C@@H](CN(C)CC1CCCCC1)O2
0 | 0 | -1.9 | -1.0 | O=C(C[C@H]1C[C@@H]2c3cc(NC(=O)NC4CCCC4)ccc3O[C@@H]2[C@H](CO)O1)NC1CCCC1
-2 | -1 | -1.0 | -7.9 | C[C@@H]1CCCCO[C@@H](CN(C)S(=O)(=O)c2ccccc2)[C@H](C)CN([C@H](C)CO)C(=O)c2cc(NS(=O)(=O)c3ccc(F)cc3)ccc2O1
1 | 2 | -1.0 | -1.8 | C[C@H](CO)N1C[C@H](C)[C@H](CN(C)C(=O)CCCN(C)C)OCCCC[C@H](C)Oc2ccc(NC(=O)CCC(F)(F)F)cc2C1=O
1 | 13 | -2.5 | 1.6 | CCC(=O)N1[C@H](CO)[C@H]2c3ccccc3N(C(=O)NC(C)C)C[C@H]21
8 | 18 | 2.0 | -0.2 | C[C@H](CO)N1C[C@H](C)[C@@H](CN(C)Cc2ccc(C(=O)Nc3ccccc3N)cc2)Oc2ccc(NS(C)(=O)=O)cc2C1=O
-7 | -6 | -1.7 | -1.8 | C/C=C/c1ccc2c(c1)O[C@H](CN(C)Cc1cncnc1)[C@@H](C)CN([C@H](C)CO)S2(=O)=O
-2 | 3 | 1.2 | 1.9 | Cc1ccc(S(=O)(=O)N(C)C[C@H]2OCCCC[C@H](C)Oc3ccc(NC(=O)Nc4c(C)noc4C)cc3C(=O)N([C@H](C)CO)C[C@@H]2C)cc1
-4 | -12 | 7.6 | -2.1 | Cc1ccccc1S(=O)(=O)N[C@@H]1CC[C@@H](CCn2cc(-c3ccc(F)cc3)nn2)O[C@H]1CO
1 | 0 | -0.5 | 0.2 | O=C(c1ccccc1)N1[C@@H](CO)[C@@H](c2ccccc2)C12CN(CCC(F)(F)F)C2
-2 | -6 | -1.8 | -1.8 | O=C(NCC[C@H]1CC[C@@H](NS(=O)(=O)Cc2ccccc2)[C@H](CO)O1)C1CCC1
-3 | -6 | -1.4 | 0.3 | COc1cc(OC)cc(-c2noc(-c3csc([C@@H]4O[C@H](CO)[C@H](O)[C@H](O)[C@H]4O)n3)n2)c1
3 | 12 | -0.8 | -0.9 | COCC(=O)Nc1ccc2c(c1)OC[C@H](C)N(C)C[C@@H](C)[C@H](OC)CN(C)C2=O
4 | 5 | -0.1 | 0.3 | CNC[C@@H]1OCCCC[C@H](C)Oc2ccc(NS(=O)(=O)c3ccccc3)cc2C(=O)N([C@@H](C)CO)C[C@@H]1C
-2 | 0 | -1.9 | -8.6 | COc1cccc(C(=O)Nc2ccc3c(c2)C(=O)N(C)C[C@H](OC)[C@@H](C)CN(C(=O)C2CCCC2)[C@H](C)CO3)c1
-3 | -21 | 5.1 | 5.6 | C[C@@H]1CN([C@H](C)CO)C(=O)c2cc(NC(=O)NC3CCCCC3)ccc2O[C@@H](C)CCCCO[C@@H]1CN(C)Cc1ccc2c(c1)OCO2
0 | 1 | 0.9 | -0.4 | O=C(Cc1ccccn1)N1CC(=O)N2[C@H](C1)[C@@H](c1ccc(-c3ccccc3)cc1)[C@@H]2CO
-3 | 3 | 12 | 4.6 | O=C(NC1CCCCC1)C(c1ccc(C(F)(F)F)cc1)n1c(=O)c(-c2ccco2)nc2ccccc21 (configuration not stated)
1 | -1 | 0.3 | -1.3 | COCC(=O)N(C)C[C@@H]1Oc2ncc(C#C[C@H](C)O)cc2C(=O)N([C@H](C)CO)C[C@H]1C
4 | -1 | -1.1 | -1.5 | CO[C@@H]1CN(C)C(=O)c2cc(NS(C)(=O)=O)ccc2OC[C@H](C)N(C(=O)C2CC2)C[C@H]1C
-8 | -9 | 0.5 | 2.1 | COc1ccc(S(=O)(=O)Nc2cccc3c2O[C@@H](CN(C)C(=O)Nc2ccc(F)cc2)[C@@H](C)CN([C@H](C)CO)C3=O)cc1
6 | 4 | 0.4 | -5.6 | C[C@@H](O)C#Cc1ccc([C@H]2[C@H](CO)N3CCCCN(S(=O)(=O)Cc4ccccc4)C[C@@H]23)cc1
-6 | 8 | -1.7 | -0.2 | O=C(C[C@H]1C[C@H]2c3cc(NC(=O)NC4CCCC4)ccc3O[C@H]2[C@H](CO)O1)NCCc1ccccc1
3 | -9 | -1.1 | -2.2 | CCCNC(=O)C[C@@H]1C[C@H]2c3cc(NC(=O)C4CCOCC4)ccc3O[C@H]2[C@H](CO)O1
-1 | -2 | 5.1 | 4.9 | C[C@@H]1CCCCO[C@@H](CN(C)Cc2ccncc2)[C@H](C)CN([C@@H](C)CO)C(=O)c2cc(NC(=O)Nc3ccc4c(c3)OCO4)ccc2O1
1 | -3 | 4.0 | 0.2 | CCC(=O)N1CCCCN2[C@H](CO)[C@H](c3ccc(-c4cccc(C#N)c4)cc3)[C@@H]2C1
0 | 8 | -0.9 | 0.2 | CCCNC(=O)N1C[C@@H]2[C@H](c3ccccc31)[C@@H](CO)N2C(=O)Nc1ccc(F)cc1
-6 | -5 | 13 | -0.6 | CCCCCCCCN1C(=O)[C@H](CC(=O)NCc2cccs2)C[C@@]2(C(=O)OC)CCCCC=C12
-2 | -16 | 9.2 | -0.6 | C/C=C/c1ccc([C@@H]2[C@@H](CO)N3CCCCN(C(=O)Nc4ccccc4F)C[C@@H]23)cc1
4 | 6 | 3.2 | 11 | CN(C)C(=O)c1ccc(-c2ccc([C@@H]3[C@@H](CO)N4CCCCN(C(=O)C5CC5)C[C@H]34)cc2)cc1
3 | 11 | -1.4 | -2.9 | O=C(O)C[C@H]1C[C@@H]2c3cc(NC(=O)Cc4ccncc4)ccc3O[C@@H]2[C@H](CO)O1
-46 | -70 | -12 | 1.7 | O=C(NCc1ccncc1)C1Cc2c(-c3ccccc3Oc3ccccc3)ccnc2O1 (configuration not stated)
-7 | -13 | 0.1 | 4.1 | COc1ccc2c3c(n(C)c2c1)[C@H](CO)N(S(=O)(=O)c1ccc(C)cc1)CC31CCN(Cc2cccnc2)CC1
-2 | -8 | -0.8 | 3.8 | COCC(=O)N1C[C@@H](C)[C@@H](OC)CN(C)C(=O)c2cc(NC(=O)Nc3cccc(F)c3)ccc2OC[C@H]1C
3 | 6 | 2.3 | -1.4 | COc1cccc(S(=O)(=O)N(C)C[C@@H]2Oc3ncc(-c4ccc(F)cc4)cc3C(=O)N([C@H](C)CO)C[C@@H]2C)c1
5 | 2 | -1.3 | -5.4 | CN1C[C@@H]2[C@@H]3C(=O)N(C)C(=O)[C@@H]3[C@](C)(C1=O)N2C(=O)c1ccc(Cl)c(Cl)c1
-7 | -23 | -4.8 | -1.9 | O=C(Cn1cc(COc2ccc(Br)cc2)nn1)c1ccc(O)cc1
4 | -1 | -4.2 | 0.5 | COc1ccc(NC(=O)Nc2ccc3c(c2)CC(=O)N([C@H](C)CO)C[C@H](C)[C@H](CN(C)C(=O)Nc2ccc4c(c2)OCO4)O3)cc1
-1 | 5 | 2.2 | -1.8 | Cc1cc(C(=O)Nc2cccc3c2O[C@H](CN(C)S(=O)(=O)c2ccc(Cl)cc2)[C@@H](C)CN([C@H](C)CO)C3=O)n(C)n1
10 | 2 | 0.8 | -3.8 | CCN1C(=O)N(C(C)=O)[C@@H]2C[C@H](C(=O)N3CCCC3)[C@H](C)[C@H](c3ccccc3)C[C@@H]21
-4 | -10 | 0.1 | 0.1 | O=C(Nc1ccc(F)cc1)N[C@@H]1CC[C@@H](CCNS(=O)(=O)c2ccccc2F)O[C@H]1CO
4 | 0 | -2.2 | 1.8 | COc1ccc(C(O)c2ncc(-c3ccccc3C)[nH]2)cc1 (configuration not stated)

(listing goes on)
rRNA inh HTS | rRNA inh HTS OD600 | rRNA inh HTS RFP | MLL AF4-AF9 inh | SMILES
3 | 8 | -2.6 | 5.2 | C[C@H](CO)N1C[C@H](C)[C@@H](CN(C)Cc2cccc(F)c2)Oc2ncc(C#CCN(C)C)cc2C1=O
1 | 10 | 2.5 | 0.1 | C[C@H](CO)N1C[C@H](C)[C@H](CN(C)C(=O)Nc2ccccc2)Oc2ccc(NC(=O)Nc3ccc(C(F)(F)F)cc3)cc2C1=O
-6 | -14 | 1.0 | -12 | CN1C(=O)c2cc(NC(=O)NCc3ccccc3)ccc2OC[C@H]2O[C@H](CC(=O)NCC3CCCCC3)CC[C@H]21
-2 | 2 | 0.0 | -0.3 | COc1ccc(NC(=O)N(C)C[C@@H]2OCCCC[C@H](C)Oc3ccc(NS(=O)(=O)c4ccc(F)cc4)cc3C(=O)N([C@H](C)CO)C[C@H]2C)cc1
18 | 23 | -2.2 | -23 | CC(C)NC(=O)c1ccc2nc([C@@H]3O[C@H](CO)[C@H](O)[C@H](O)[C@H]3O)[nH]c2c1
-6 | 1 | 5.6 | -0.5 | O=S1(=O)c2ccc(Br)cc2OC2CCCN1C2 (configuration not stated)
0 | 1 | 1.7 | -1.7 | Cc1ccc(S(=O)(=O)Nc2ccc3c(c2)C(=O)N([C@H](C)CO)C[C@@H](C)[C@@H](CN(C)S(=O)(=O)c2ccc(C)cc2)O3)cc1
12&2 | 11&0 | 0.0&-0.2 | -3.8&-2.6 | C[C@@H]1CN([C@@H](C)CO)C(=O)CCCn2nncc2CO[C@H]1CN(C)CC1CCCCC1
-12 | -32 | -2.9 | 5.4 | CC(=O)NC(c1cccc(F)c1)c1nc(-c2cccc(C(C)C)c2)cs1 (configuration not stated)

Exported field by field: entries from further up
Structure: COc1ccc2c3c(n(C)c2c1)[C@H](CO)N(S(=O)(=O)c1ccc(C)cc1)CC31CCN(Cc2cccnc2)CC1
  rRNA inh HTS: -7; rRNA inh HTS OD600: -13; rRNA inh HTS RFP: 0.1; MLL AF4-AF9 inh: 4.1
Structure: CC(C)NC(=O)c1ccc2nc([C@@H]3O[C@H](CO)[C@H](O)[C@H](O)[C@H]3O)[nH]c2c1
  rRNA inh HTS: 18; rRNA inh HTS OD600: 23; rRNA inh HTS RFP: -2.2; MLL AF4-AF9 inh: -23
Structure: C[C@@H]1CN([C@@H](C)CO)C(=O)Cc2cc(NS(=O)(=O)c3cn(C)cn3)ccc2O[C@H]1CN(C)Cc1ccncc1
  rRNA inh HTS: 0; rRNA inh HTS OD600: 0; rRNA inh HTS RFP: 0.9; MLL AF4-AF9 inh: -3.8
Structure: CO[C@@H]1CN(C)C(=O)c2ccc(NC(=O)Nc3ccccc3Cl)cc2OC[C@H](C)NC[C@@H]1C
  rRNA inh HTS: -3; rRNA inh HTS OD600: 4; rRNA inh HTS RFP: 0.6; MLL AF4-AF9 inh: 1.1

Source: PubChem (Broad Institute)
